CFTR F508del – compounds raising F508del-CFTR protein level – cell-based, HeLa F508del-CFTR, immunofluorescence, viability, primary screen (AID 1224863) | HeLa F508del-CFTR, immunofluorescence total CFTR, 24 h; by the record results were divided by relative cell number; some inactives read as strong as hits | calls, or highest fold increase where a dose series was run | 10,000 tested, 0.1% active; in the data nearly all actives have a first-pass fold increase above 1.5; a few of its hits are not listed in these tables;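 also: total CFTR protein by anti-CFTR immunofluorescence in fixed cells; first pass at 25 µM or 10 µg/mL by library and series up to twice that; 1 = untreated cells; first-pass hits also needed half or more of the cells alive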
CFTR F508del fold 25 µM – recorded beside CFTR F508del, whose call it bears; fold increase; measured here: primary screen single dose 25 uM; library dosed in µM
CFTR F508del fold 10 ug/mL – second read-out of CFTR F508del, no call of its own (marks repeat the call); fold increase; measured here: primary screen 10 ug/mL
CFTR F508del viability 25 µM – second read-out of CFTR F508del, no call of its own (marks repeat the call); viability, %; measured here: primary viability 25 uM; library dosed in µM;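 0% = killed and 100% = untreated cells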
CFTR F508del viability 10 ug/mL – recorded beside CFTR F508del, whose call it bears; viability, %; measured here: primary viability 10 ug/mL;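 0% = killed and 100% = untreated cells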
* hit, by the source's call; i = inactive; . = not tested or not shown; & = joins results of further samples. These rows are one share of the data, so the mix of outcomes need not match the whole.

SMILES	CFTR F508del	CFTR F508del fold 10 ug/mL	CFTR F508del viability 10 ug/mL	others
CCC1CCC2(CC1)NC(=O)N(CC(=O)NC1CCCCC1)C2=O (stereo not drawn)	i	1	93
Cc1cc(C(=O)Cn2cc([N+](=O)[O-])ccc2=O)c(C)n1-c1ccc2c(c1)OCCO2	i	0.95	92
N#C/C(=C/c1ccc(Br)s1)c1nnc2n1CCCCC2	i	1	96
CC1=C(C/C=C(\C)CCC[C@H](C)CCC[C@H](C)CCCC(C)C)C(=O)c2ccccc2C1=O	i	.	.	CFTR F508del fold 25 µM=1;CFTR F508del viability 25 µM=103
NC(=O)NC1NC(=O)NC1=O (stereo not drawn)	i	.	.	CFTR F508del fold 25 µM=1.2;CFTR F508del viability 25 µM=85
CN(CCO)c1nc(-c2cccnc2)nc2sc3c(c12)CCC3	i	1.1	95
CN(C)S(=O)(=O)CCC(=O)O	i	1.1	95
O=C(CN1C(=O)NC2(CCCC2)C1=O)c1ccc2c(c1)OCCCO2	i	1	88
CC1(NC(=O)C2CCCC2)CCS(=O)(=O)C1 (stereo not drawn)	i	0.85	93
O=C(C1CCCCC1)N1CC(=O)N2CCc3ccccc3C2C1 (stereo not drawn)	i	.	.	CFTR F508del fold 25 µM=0.91&0.99;CFTR F508del viability 25 µM=104&85
Cc1nc(Nc2ncc(C(=O)Nc3c(C)cccc3Cl)s2)cc(N2CCN(CCO)CC2)n1	i	.	.	CFTR F508del fold 25 µM=0.78;CFTR F508del viability 25 µM=70
O=C(OC1CCCCC1=O)c1ccc(-c2ccc3c(c2)OCCO3)s1 (stereo not drawn)	i	0.9	88
CC1CC(OC(=O)c2cc3sc(Nc4ccccc4)nc3s2)C(=O)O1 (stereo not drawn)	i	1.1	101
CCOC(=O)c1c(C)oc2nc(CN3CCCCCCC3)[nH]c(=O)c12	i	0.93	101
CC(C)n1cnn(CN2CCC(c3nc4ccccc4s3)CC2)c1=S	i	0.96	95
O=C(N/N=C/c1ccc([N+](=O)[O-])o1)c1ccc(O)cc1	i	.	.	CFTR F508del fold 25 µM=0.72;CFTR F508del viability 25 µM=69
O=C(NC1CCC(O)CC1)c1ccc2c(c1)NC(=O)C1CCCN21 (stereo not drawn)	i	0.94	93
Cc1cc(CN2C(=O)NC3(CCSC3)C2=O)on1 (stereo not drawn)	i	0.91	102
Cc1oc(-c2ccccc2)nc1COn1nnc2ccc(S(C)(=O)=O)cc21	i	1.1	101
CC(C)C(NC(=O)C12CC3CC(CC(C3)C1)C2)C(=O)N1CCN(CC(=O)N2CCCCC2)CC1 (stereo not drawn)	i	0.96	94
Cc1sc2nc(-c3cccs3)nc(NCCO)c2c1C	i	1.1	84
Cc1nc(CSCCC(=O)NCCC2CC3CCC2C3)cs1 (stereo not drawn)	i	0.98	106
Cc1nn2c(nc(N3CCNC(=O)CC3)c3ccccc32)c1Cl	i	1.1	110
CC(C)(C)C(=O)CSc1nnc2ccccn12	i	1.1	97
Cc1ncc(CO)c(CO)c1O	i	.	.	CFTR F508del fold 25 µM=1.1;CFTR F508del viability 25 µM=82
O=C1CN(C(=O)CSc2ccc(Br)cc2)C2(CCCCC2)C(=O)N1	i	1.1	95
COc1ccc2cc(C(=O)OC3CCOC3=O)c(C)nc2c1 (stereo not drawn)	i	1.1	94
N#Cc1c(F)cccc1N1CCN(Cc2nnnn2C2CC2)CC1	i	1	100
COc1ccc(-n2c(SCCO)nc3sc4c(c3c2=O)CCC4)cc1	i	0.97	83
CCc1nnc(NC(=O)CCc2c(C)noc2C)s1	i	1.1	106
Cc1sc2nc(C(C)N3CCN(C(=O)C(C)C)CC3)[nH]c(=O)c2c1C (stereo not drawn)	i	1.1	89
CC(C(=O)O)c1cccc(Oc2ccccc2)c1 (stereo not drawn)	i	.	.	CFTR F508del fold 25 µM=1.1&1&1.1;CFTR F508del viability 25 µM=106&95&95
O=S1(=O)CCC(N(Cc2cnn(-c3ccccc3)c2)Cc2ccco2)C1 (stereo not drawn)	i	0.89	93
O=c1oc(-c2ccc(F)cc2)nn1CN1CCSc2ccc([N+](=O)[O-])cc21	i	1	93
COc1ccc(/C=C(/F)c2nc3ccccc3s2)cc1	i	0.98	84
O=S(=O)(c1ccc2c(c1)CCCC2)N1CCOC(c2ccc(F)cc2)C1 (stereo not drawn)	i	1	96
CC(NC(=O)CC(F)(F)F)c1ccc(Cl)s1 (stereo not drawn)	i	1.1	84
O=C1[C@H](CC[C@H](O)c2ccc(F)cc2)[C@@H](c2ccc(O)cc2)N1c1ccc(F)cc1	i	.	.	CFTR F508del fold 25 µM=0.86;CFTR F508del viability 25 µM=82
COc1ccc(CCSc2nnc(-c3ccc(OC)cc3)o2)cc1	i	0.87	88
COC(=O)N(C)c1ccc(O)cc1	i	1.2	90

By substructure, the compounds so far containing a Cl atom
SMILES	CFTR F508del	CFTR F508del fold 10 ug/mL	CFTR F508del viability 10 ug/mL	others
Cc1nc(Nc2ncc(C(=O)Nc3c(C)cccc3Cl)s2)cc(N2CCN(CCO)CC2)n1	i	.	.	CFTR F508del fold 25 µM=0.78;CFTR F508del viability 25 µM=70
Cc1nn2c(nc(N3CCNC(=O)CC3)c3ccccc32)c1Cl	i	1.1	110
CC(NC(=O)CC(F)(F)F)c1ccc(Cl)s1 (stereo not drawn)	i	1.1	84

(cont.)
SMILES	CFTR F508del	CFTR F508del fold 10 ug/mL	CFTR F508del viability 10 ug/mL	others
Cc1cc(-n2c(C)c[nH]c2=O)no1	i	0.95	99
CS(=O)(=O)c1ccc(N2CCN(Cc3ccc4c(c3)CCO4)CC2)c([N+](=O)[O-])c1	i	0.94	90
Cc1ccsc1C(=O)OCC(=O)N(C)C1CCS(=O)(=O)C1 (stereo not drawn)	i	1.1	101
COc1ccc(OC)c(C2CCCN2Cn2nc(-c3ccccc3)n(C)c2=S)c1 (stereo not drawn)	i	1.1	99
COc1c2occc2c(OC)c2c(=O)cc(C)oc12	i	.	.	CFTR F508del fold 25 µM=0.97;CFTR F508del viability 25 µM=98
Cc1cc(C(=O)CN2C(=O)NC3(CCCCCCC3)C2=O)c(C)n1-c1ccon1	i	0.97	75
COc1ccc(CC2c3cc(OC)c(OC)cc3CC[N+]2(C)CCC(=O)OCCCCCOC(=O)CC[N+]2(C)CCc3cc(OC)c(OC)cc3C2Cc2ccc(OC)c(OC)c2)cc1OC (stereo not drawn)	i	.	.	CFTR F508del fold 25 µM=1.1&1.2;CFTR F508del viability 25 µM=90&99
O=C(O)c1ccccc1OP(=O)(O)O	i	.	.	CFTR F508del fold 25 µM=1;CFTR F508del viability 25 µM=107
CC[C@@H](C(=O)O)[C@@H]1O[C@@H]([C@@H](C)[C@H](O)[C@H](C)C(=O)[C@H](CC)[C@H]2O[C@]3(C=C[C@@H](O)[C@]4(CC[C@@](C)(C5CC[C@](O)(CC)[C@H](C)O5)O4)O3)[C@H](C)C[C@@H]2C)[C@@H](C)C[C@H]1C (stereo partly drawn)	i	.	.	CFTR F508del fold 25 µM=0.63;CFTR F508del viability 25 µM=45
Cc1cc(C(=O)CSc2nnc(-c3ccc4c(c3)OCO4)o2)c(C)s1	i	0.91	91
NCc1ccc(S(N)(=O)=O)cc1	i	.	.	CFTR F508del fold 25 µM=1.1;CFTR F508del viability 25 µM=93
O=S(=O)(c1ccc2c(c1)OCCO2)N1Cc2cc3c(cc2C2(CCCC2)C1)OCCO3	i	1.1	97
CN(C1CCCCC1)S(=O)(=O)NCC(c1ccccc1Cl)N1CCOCC1 (stereo not drawn)	i	0.94	84
CN(Cn1[nH]c(C(C)(C)C)nc1=S)C1C2CC3CC(C2)CC1C3 (stereo not drawn)	i	1.1	97
COC(=O)c1sccc1S(=O)(=O)N(C)Cc1cccs1	i	1.1	97
O=C1C(=O)N(C2CCCC2)C(=O)N1Cc1nc(-c2ccc(Cl)cc2)no1	i	1	104
CC(=O)[C@H]1CCC2C3CC=C4C[C@@H](OC(=O)CCC(=O)O)CC[C@]4(C)C3CC[C@@]21C (stereo partly drawn)	i	.	.	CFTR F508del fold 25 µM=0.99;CFTR F508del viability 25 µM=90
O=C(CN1CCN(C(=O)C2CC2)CC1)NC(=O)NC1CCCCC1	i	1	101
Cc1noc(C)c1CC(=O)NCCC12CC3CC(CC(C3)C1)C2	i	0.93	101
C=CCn1c(COc2ccccc2-c2ccccc2)nnc1SC1CCOC1=O (stereo not drawn)	1.5	1.6	98

The final two entries of the part above lead into the next.
SMILES	CFTR F508del	CFTR F508del fold 10 ug/mL	CFTR F508del viability 10 ug/mL	others
Cc1noc(C)c1CC(=O)NCCC12CC3CC(CC(C3)C1)C2	i	0.93	101
C=CCn1c(COc2ccccc2-c2ccccc2)nnc1SC1CCOC1=O (stereo not drawn)	1.5	1.6	98
NC(N)=NN=Cc1c(Cl)cccc1Cl	i	.	.	CFTR F508del fold 25 µM=1.1;CFTR F508del viability 25 µM=80
C[C@H](NC(=O)C1CCCCC1)C(=O)O	i	1	101
CC1(C)Cc2cccc(OCCNc3nc4ccccc4o3)c2O1	i	0.8	82
CC(=O)OC1C=C2C(Cl)=C[C@@H]3[C@H](CC[C@@]4(C)[C@H]3CC[C@]4(OC(C)=O)C(C)=O)[C@@]2(C)CC1 (stereo partly drawn)	i	.	.	CFTR F508del fold 25 µM=1;CFTR F508del viability 25 µM=82
N#Cc1ncn(CCN2CCOC2=O)n1	i	1	109
N#C/C(=C/c1ccccc1Br)Sc1ccc(Br)cc1	i	1	74
O=c1c2ccccc2nnn1CSc1nnc(-c2ccccc2F)o1	i	0.95	87
CC(C)(C)CC(C)(C)c1cc(Cc2cc(C(C)(C)CC(C)(C)C)cc(-n3nc4ccccc4n3)c2O)c(O)c(-n2nc3ccccc3n2)c1	i	.	.	CFTR F508del fold 25 µM=1;CFTR F508del viability 25 µM=96
CNc1nnc(SCc2cc(C)cc(C)c2)s1	i	0.91	86
CC(C)(C)C(=O)CN1C(=O)NC(C)(c2ccc(Br)cc2)C1=O (stereo not drawn)	i	1	93
CC(C)COCC(CN(Cc1ccccc1)c1ccccc1)N1CCCC1 (stereo not drawn)	i	.	.	CFTR F508del fold 25 µM=1.1&1.1;CFTR F508del viability 25 µM=93&82
O=C1C(=O)N(CN2CCN(Cc3ccncc3)CC2)C(=O)N1CCC1=CCCCC1	i	0.97	82
O=C1CC[C@@H](C(=O)O)N1	i	.	.	CFTR F508del fold 25 µM=0.99;CFTR F508del viability 25 µM=88
CCCn1c(=O)n(C)c(=O)c2c(SCc3cc(=O)oc4cc(CC)ccc34)nc(C(C)(C)C)nc21	i	1.1	90
O=C1Nc2ccccc2CC1CCC(=O)N1CC=C(c2ccccc2)CC1 (stereo not drawn)	i	0.93	100
CCOC(=O)C1=C(CN2CCC(C(=O)NCC(F)(F)F)CC2)NC(=O)NC1	i	0.9	84
CN1CCN(C(=O)c2cc(=O)[nH]c3ccccc23)c2nc3ccccc3nc21	i	1	83
CC(NC(=O)Cc1csc(N2CCCC2=O)n1)C12CC3CC(CC(C3)C1)C2 (stereo not drawn)	i	1.1	96
O=C(c1cnc2cc3c(cc2c1)OC1(CCCC1)O3)c1cc(F)ccc1O	i	0.93	89
O=S(=O)(c1ccc2c(c1)OCCO2)N1CCN(c2ncccc2Cl)CC1	i	0.93	86
O=c1n(CCCN2CCN(c3cccc(Cl)c3)CC2)nc2ccccn12	i	.	.	CFTR F508del fold 25 µM=1.2&1;CFTR F508del viability 25 µM=92&88
Cn1c(-c2ccc(F)cc2)nn(CN2CCCC2c2cccs2)c1=S (stereo not drawn)	i	0.94	102
CNS(=O)(=O)c1ccc(S(=O)(=O)N(C)C2CCCCCC2)cc1	i	1	98
O=C(CSc1ncnc2ccsc12)N1CCc2sccc2C1c1cccs1 (stereo not drawn)	i	1	97
O=C(COc1ccc(-c2nnco2)cc1)c1ccc(N2CCCC2=O)cc1	i	1.1	94
CC1CCc2c(sc3ncnc(OCC(=O)N4CCCCC4)c23)C1 (stereo not drawn)	i	1.1	99
COc1cc(CCNC(=O)NCc2ccc3c(c2)OCO3)ccc1OC(F)F	i	1	98
Cc1cc(S(=O)(=O)NCC2COc3ccccc3O2)ccc1Br (stereo not drawn)	i	0.97	96
Fc1ccc(COc2ccc3oc4c(c3c2)CCCC4)c(Cl)c1	i	1.1	109
CC(=O)N[C@@H](CCC(N)=O)C(=O)O	i	.	.	CFTR F508del fold 25 µM=0.96;CFTR F508del viability 25 µM=103
CC(C)CC(C(=O)Nc1nc(CN2CCC(C)CC2)cs1)N1C(=O)C2CC=CCC2C1=O (stereo not drawn)	i	1.1	95
CC(=O)c1c(C)[nH]c(C(=O)NCC2CN(CC(C)C)CCO2)c1C (stereo not drawn)	i	1.1	105
Cc1nc2cc(NC(=O)C3CC(=O)N(C4CC4)C3)ccc2o1 (stereo not drawn)	i	0.97	102
CCC(=O)OCC(=O)[C@@]1(OC(=O)CC)[C@H](C)CC2C3C([C@@H](O)C[C@@]21C)[C@@]1(C)C=CC(=O)C=C1C[C@H]3Cl (stereo partly drawn)	i	.	.	CFTR F508del fold 25 µM=1.2;CFTR F508del viability 25 µM=93

Fetched by structure from above:
SMILES	CFTR F508del	CFTR F508del fold 10 ug/mL	CFTR F508del viability 10 ug/mL	others
O=C(CSc1ncnc2ccsc12)N1CCc2sccc2C1c1cccs1 (stereo not drawn)	i	1	97
CC(=O)c1c(C)[nH]c(C(=O)NCC2CN(CC(C)C)CCO2)c1C (stereo not drawn)	i	1.1	105
Fc1ccc(COc2ccc3oc4c(c3c2)CCCC4)c(Cl)c1	i	1.1	109

Assay outcomes as filed in PubChem.
